MT stabilize HCS: microtubule stabilization, imaging screen. HeLa tubulin immunostaining HCS, 24 h; share of cells brighter than vehicle mean+2SD. % tubulin-high responders, % at 10 µM. 200,000 tested, 0.83% active. AID 2205;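 active = plate Z-score above 3 for both tubulin-high and condensed-nucleus cell shares, with cell loss under 80%, at 10 µM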;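 note: anti alpha tubulin signal scored within the nucleus-defined area of each cell; some results filed as inactive read as strong as hits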
Autophagy HCS: alters autophagy in cells; 190,000 tested, 0.98% active; MEF GFP-LC3 puncta imaging; test concentration mostly 10 µM; calls only at 10 µM (by protocol); AID 463193;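 active = percentage of spot-positive cells more than 3 SD above its plate mean, without a fluorescence outlier flag or 80% toxicity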;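 note: spot-positive cell cutoff set from DMSO-treated cells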
WT yeast gro inh: growth inhibition of WT yeast, mitochondrial fusion screen; inhibition, % at 10 µM; mitochondrial fusion phenotypic screen, WT strain; AID 1362; 190,000 tested, 2.1% active; in the data active = inhibition above about 58%; tested in S. cerevisiae
Yfh1-depleted yeast: mitochondrial function rescue without frataxin homolog – Friedreich's ataxia, plus single-dose screen, dose response (AID 1465). one-dose fold induction at 50 µM; EC50 in µM for titrated hits. S. cerevisiae Yfh1-off respiration, WST-1 reduction, 72 h; higher fold induction means a stronger effect. 220,000 tested, 0.074% active;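 active = fold induction of absorbance versus untreated yeast above a set limit, then at least 30% activation at any dose in follow-up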;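 note: activators that raise dye reduction in frataxin-depleted yeast; strong numbers were not always called active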
Insulin prom up: MIN6 insulin promoter up-regulation. MIN6 insulin promoter-GFP reporter, high-content imaging; hits give high values. z-score at 5 µM. 190,000 tested, 0.3% active;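 active = z-score above 3 at 5 µM with at least 500 cells counted in the well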
Dynein cargo inh: blocks dynein driven cargo transport along microtubules; 3617.4 mouse cells, GR-EGFP nuclear translocation imaging; test concentration mostly 20 µM; stimulated with dexamethasone, 1 µM; hits give low values; z-score, hits read low; 220,000 tested, 0.47% active;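 active = plate z-score of nuclear minus cytoplasmic receptor signal below a set negative limit, without overly bright fluorescence or cell loss, cut at about -3.5 in these data, passing the limit was not always enough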;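 note: z-score of nuclear minus cytoplasmic ring GR-EGFP intensity difference per well; some compounds called inactive have numbers as strong as hits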
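Buffer or medium: tet-free, stripped-serum medium; Also added: dexamethasone, 1.0 µM final; Technique: high-content fluorescence imaging after fixation; Times: 48 h induction, 1 h compound, 30 min dex at 37 °C; Read-out: per-cell GR-EGFP intensity, nucleus versus surrounding cytoplasmic ring, well-averaged.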
WT yeast gro inh mutant strain: second read-out of WT yeast gro inh, no call of its own (marks repeat the call); inhibition, %; mitochondrial fusion phenotypic screen, mutant strain inhibition
Dynein cargo inh cytoplasmic EGFP: recorded beside Dynein cargo inh, whose call it bears; z-score; measured here: cytoplasmic GR-EGFP intensity; hits give high values
Dynein cargo inh nuclear GR-EGFP: further read-out of Dynein cargo inh, marked with its call; z-score; measured here: nuclear GR-EGFP intensity;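 lower value marks the stronger effect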
Dynein cargo inh cell count: further read-out of Dynein cargo inh, marked with its call; z-score; measured here: cell count per field
Insulin prom up cell count: recorded beside Insulin prom up, whose call it bears; cell count; measured here: cytotoxicity, nuclei count;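 total cells summed across four imaged fields per well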
MT stabilize HCS Hoechst-high %: further read-out of MT stabilize HCS, marked with its call; % Hoechst-high responders; measured here: nuclear condensation Hoechst responders;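 share of cells brighter than vehicle mean plus two SD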
MT stabilize HCS cytotoxicity %: further read-out of MT stabilize HCS, marked with its call; toxicity, %; measured here: cytotoxicity by cell density;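 0% = mean cell density of plate MIN control wells and 100% = no cells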
Autophagy HCS cell loss 18 h: further read-out of Autophagy HCS, marked with its call; toxicity, %; measured here: cell loss, nuclei count;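 cell loss after 18 h compound exposure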
Active calls of the source: *; i = inactive; & = joins results of further samples.

SMILES	MT stabilize HCS	MT stabilize HCS Hoechst-high %	MT stabilize HCS cytotoxicity %	Autophagy HCS	Autophagy HCS cell loss 18 h	WT yeast gro inh	WT yeast gro inh mutant strain	Yfh1-depleted yeast	Insulin prom up	Insulin prom up cell count	Dynein cargo inh	Dynein cargo inh cytoplasmic EGFP	Dynein cargo inh nuclear GR-EGFP	Dynein cargo inh cell count
CCCC(O)(CCN1CCCCC1)c1ccc(OCC)cc1 (stereo not given)	5.2	2.1	1.9	i	-3.4	8.2	-3.1	i	-2.29	889	-0.321	-0.185	-0.159	0.387
Cc1cccc(C(=O)Nc2cccc(OC(=O)c3cccc(C)c3)c2)c1	0.8	2.2	8.4	i	2.1	33.3	4.8	i	0.43	1479	0.284	-0.117	-0.0287	-0.0304
N/C(=N\OC(=O)c1cccc(Br)c1)c1ccc(Br)cc1	0.8	1.4	6.2	i	-4.3	-1.6	-10.1	i	-0.44	1554	-0.0268	-0.124	0.17	-0.0908
CC1(C)OC(=O)C(=CNn2cnc3ccccc3c2=O)C(=O)O1	5.0	3.8	4.5	i	10.5	4.4	21.0	i	-0.65	1632	-0.0965	-0.299	0.103	0.452
CCCCCn1c(SCc2ccncc2)nc2cc(C(=O)NCc3ccco3)ccc2c1=O	3.5	1.3	1.6	i	7.3	48.5	-21.3	i	-1.81	1525	-1.66	-0.278	-0.893	0.827
Cc1cc(O)c(/C=N/Nc2ccc(Cl)cc2)c(=O)o1	3.0	1.9	8.2	i	-30.1	8.1	-0.5	i	-0.91	1704	-0.215	-0.222	0.354	0.802
CC(=O)N(c1ccc2oc(=O)sc2c1)S(=O)(=O)c1cccs1	3.2	2.5	13.8	i	-11.7	9.7	-0.1	i	-0.05	1541	-0.726	-0.327	-0.392	0.748
COC(=O)c1ccccc1OCCCOc1ccc(C=O)cc1OC	0.9	1.5	7.2	i	-4.3	-11.4	0.0	i	-0.11	1681	0.224	-0.216	-0.0552	0.148
Cc1ccc(C(=O)CCC(=O)Nc2cccc(C(F)(F)F)c2)cc1	0.6	1.4	8.2	i	2.3	11.0	14.9	i	-0.44	1676	-0.651	-0.22	-0.726	0.747
Cc1nn(CC(=O)N2CCOCC2)c(C)c1[N+](=O)[O-]	2.4	1.1	6.8	i	14.0	8.9	1.6	i	-0.26	1488	-0.467	-0.206	0.267	-0.236
N#CCCn1ncc2ccccc21	2.7	2.1	11.5	i	20.2	-8.2	6.2	i	-0.02	1584	-1.19	6.96	0.318	0.916
O=C(Cc1cc(=O)[nH][nH]1)N/N=C/C(Cl)=C/c1ccccc1	2.5&2.6	2.0&1.3	9.0&5.0	i	35.5&17.4	3.7&10.0	2.9&17.2	i	-0.66&0.51	1529&1566	-0.204&1.58	-0.134&-0.214	0.394&1.04	0.177&-0.224

Arranged by value in MT stabilize HCS Hoechst-high % (smallest number first): some entries from above.
| compound | MT stabilize HCS Hoechst-high % |
| --- | --- |
| Cc1ccc(C(=O)CCC(=O)Nc2cccc(C(F)(F)F)c2)cc1 | 1.4 |
| N#CCCn1ncc2ccccc21 | 2.1 |
| Cc1cccc(C(=O)Nc2cccc(OC(=O)c3cccc(C)c3)c2)c1 | 2.2 |

(list continues)
SMILES	MT stabilize HCS	MT stabilize HCS Hoechst-high %	MT stabilize HCS cytotoxicity %	Autophagy HCS	Autophagy HCS cell loss 18 h	WT yeast gro inh	WT yeast gro inh mutant strain	Yfh1-depleted yeast	Insulin prom up	Insulin prom up cell count	Dynein cargo inh	Dynein cargo inh cytoplasmic EGFP	Dynein cargo inh nuclear GR-EGFP	Dynein cargo inh cell count
Cc1nc(-n2nnc3cc(C)c(C)cc32)c2c3c(sc2n1)CCCC3	1.8	1.1	10.2	i	-3.0	0.6	11.6	i	-0.03	1640	-0.624	-0.0948	-0.19	0.366
COCc1nnc(NC(=O)c2ccc(S(=O)(=O)N3CCCCCC3)cc2)o1	3.4	4.1	5.4	i	12.6	24.2	20.2	i	0.23	1518	-0.0309	0.165	0.326	0.0563
O=C(c1ccco1)N1CCN(C(=O)c2ccc(COc3ccc4c(c3)CCC4)o2)CC1	3.0	2.3	4.0	i	-2.0	19.6	10.5	i	-1.18	865	-0.552	-0.105	-0.00633	-0.544
Cc1[nH]c(=O)c(C(=O)/C=C/c2ccccc2F)c2c1CCCC2	22.6	10.6	43.4	i	-5.5	-16.3	-5.5	i	-0.1	1343	-3.32	0.364	-1.52	0.139
O=C(CN1C(=O)C2C3C=CC(C3)C2C1=O)Nc1cccc2c1CCCC2 (stereo not given)	6.3	1.4	0.4	i	10.2	-10.9	7.3	i	0.05	1563	-0.395	-0.5	-0.406	0.748
S=C1NCCOCCOCCOCCN1	2.0	2.2	6.2	i	1.9	11.8	-0.7	i	0.37	1374	-0.119	-0.223	-0.816	0.739
COc1ccccc1C(=O)N/C(=C/c1ccccc1)C(=O)NC(CCSC)C(=O)O (stereo not given)	2.0	1.3	6.5	i	4.7	25.5	9.6	i	-0.09	1635	0.301	-0.187	-0.0345	0.334
CC(C)CC(=O)Nc1ccccc1-c1nnn(CC(=O)N2CCc3ccccc3C2)n1	2.6	1.9	9.0	i	0.2	-3.9	22.7	i	-0.3	1624	-0.908	-0.204	-1.15	-0.484

Rewritten with values under each structure: 8 of the compounds above.
Below each SMILES – MT stabilize HCS	MT stabilize HCS Hoechst-high %	MT stabilize HCS cytotoxicity %	Autophagy HCS	Autophagy HCS cell loss 18 h	WT yeast gro inh	WT yeast gro inh mutant strain	Yfh1-depleted yeast	Insulin prom up	Insulin prom up cell count	Dynein cargo inh	Dynein cargo inh cytoplasmic EGFP	Dynein cargo inh nuclear GR-EGFP	Dynein cargo inh cell count
O=C(Cc1cc(=O)[nH][nH]1)N/N=C/C(Cl)=C/c1ccccc1
    2.5&2.6	2.0&1.3	9.0&5.0	i	35.5&17.4	3.7&10.0	2.9&17.2	i	-0.66&0.51	1529&1566	-0.204&1.58	-0.134&-0.214	0.394&1.04	0.177&-0.224
Cc1nc(-n2nnc3cc(C)c(C)cc32)c2c3c(sc2n1)CCCC3
    1.8	1.1	10.2	i	-3.0	0.6	11.6	i	-0.03	1640	-0.624	-0.0948	-0.19	0.366
COCc1nnc(NC(=O)c2ccc(S(=O)(=O)N3CCCCCC3)cc2)o1
    3.4	4.1	5.4	i	12.6	24.2	20.2	i	0.23	1518	-0.0309	0.165	0.326	0.0563
O=C(c1ccco1)N1CCN(C(=O)c2ccc(COc3ccc4c(c3)CCC4)o2)CC1
    3.0	2.3	4.0	i	-2.0	19.6	10.5	i	-1.18	865	-0.552	-0.105	-0.00633	-0.544
Cc1[nH]c(=O)c(C(=O)/C=C/c2ccccc2F)c2c1CCCC2
    22.6	10.6	43.4	i	-5.5	-16.3	-5.5	i	-0.1	1343	-3.32	0.364	-1.52	0.139
O=C(CN1C(=O)C2C3C=CC(C3)C2C1=O)Nc1cccc2c1CCCC2 (stereo not given)
    6.3	1.4	0.4	i	10.2	-10.9	7.3	i	0.05	1563	-0.395	-0.5	-0.406	0.748
S=C1NCCOCCOCCOCCN1
    2.0	2.2	6.2	i	1.9	11.8	-0.7	i	0.37	1374	-0.119	-0.223	-0.816	0.739
COc1ccccc1C(=O)N/C(=C/c1ccccc1)C(=O)NC(CCSC)C(=O)O (stereo not given)
    2.0	1.3	6.5	i	4.7	25.5	9.6	i	-0.09	1635	0.301	-0.187	-0.0345	0.334

A portion of the library; count on the stated rates, not on these rows.
